# Screens as filed in PubChem BioAssay.
# RGS16-Gao HTS – modulates binding between human RGS16 and Galphao; O15492+P09471; binding response (% of control), % at 10 µM; AID 1441; hit rate 0.38% among 220,000; bead-based flow cytometry RGS16-Galphao binding, fluorescence; actives lie on both sides;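 active = below 25% or above 175%, edge rows of some plates excepted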;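 also: Galphao activated by GDP with aluminum fluoride before binding; 100% = wells without compound and 0% = beads without RGS; some results beyond the cut were filed as inactive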
# Target sequence (O15492 whole entry, looked up): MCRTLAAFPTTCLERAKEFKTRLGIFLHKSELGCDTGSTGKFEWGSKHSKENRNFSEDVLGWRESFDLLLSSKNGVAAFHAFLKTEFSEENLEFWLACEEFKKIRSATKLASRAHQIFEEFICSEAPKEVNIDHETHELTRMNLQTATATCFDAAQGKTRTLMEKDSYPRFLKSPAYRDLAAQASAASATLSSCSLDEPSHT
# Target sequence (P09471 whole entry, looked up): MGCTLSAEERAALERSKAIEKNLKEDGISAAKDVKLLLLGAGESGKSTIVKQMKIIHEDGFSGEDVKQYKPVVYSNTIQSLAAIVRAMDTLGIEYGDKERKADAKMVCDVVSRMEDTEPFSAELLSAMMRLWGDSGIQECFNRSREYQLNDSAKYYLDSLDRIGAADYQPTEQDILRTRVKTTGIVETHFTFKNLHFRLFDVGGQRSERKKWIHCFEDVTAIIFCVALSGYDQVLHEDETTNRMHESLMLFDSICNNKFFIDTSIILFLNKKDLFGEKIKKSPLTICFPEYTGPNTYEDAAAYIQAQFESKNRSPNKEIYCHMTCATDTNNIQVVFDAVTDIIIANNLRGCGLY
# GALR2 ag – agonists of human galanin receptor 2 (GALR2); O43603; GALR2-expressing cells, agonist activation read-out; activation, %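 (tested at 5 µM)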; hit rate 0.48% among 140,000;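 active = above mean plus 3 SD of all compounds, about 5% in these data, not always enough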;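 also: 0% = vehicle buffer wells and 100% = reference agonist at full effect; tested in CHO reporter cells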
# Target sequence (O43603 whole entry, looked up): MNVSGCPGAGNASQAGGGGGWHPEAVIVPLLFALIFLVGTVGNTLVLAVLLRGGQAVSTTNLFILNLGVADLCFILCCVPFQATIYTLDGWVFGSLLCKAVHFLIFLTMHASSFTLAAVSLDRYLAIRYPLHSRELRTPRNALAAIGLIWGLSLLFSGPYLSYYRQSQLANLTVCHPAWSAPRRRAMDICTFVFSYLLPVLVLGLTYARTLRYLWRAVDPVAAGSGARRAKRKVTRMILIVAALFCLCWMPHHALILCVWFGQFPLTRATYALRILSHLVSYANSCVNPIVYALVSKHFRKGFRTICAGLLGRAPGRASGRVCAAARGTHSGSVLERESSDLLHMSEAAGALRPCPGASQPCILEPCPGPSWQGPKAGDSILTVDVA
# PKD1 kinase inh – inhibitors of human PKD1 kinase. PKD1 kinase fluorescence polarization assay. inhibition, %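 (about 10 µM by stock and volumes)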. Q15139. hit rate 0.056% among 200,000;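 active = inhibition of 50% or more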;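 also: controls were vehicle for no effect and a reference inhibitor for full effect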
# HSV augment – increases HSV replication in cells; HSV replication augmentation in cells, fold increase; maximum fold increase; hit rate 0.005% among 220,000;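 active = peak rise of 1.5-fold or more in the series; inconclusive = self-fluorescent or not available for retest; tested in PC3 cells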;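 also: first round at 10 µM; read as green reporter fluorescence; hits show the peak of a series up to 25 µM; 1 = signal of infected wells without compound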
# Insulin prom inh – TRM-6 insulin promoter activity inhibition; AID 1273; inhibition, % at 2 µM; hit rate 0.9% among 130,000; TRM-6 cells (human fetal islet line), insulin promoter-eGFP reporter, imaging; reporter expression induced with tamoxifen;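 active = inhibition above the mean plus 3 SD, with well images judged a real hit on visual review, cut at about 60% in these data, passing the limit was not always enough; inconclusive = inhibition over the cutoff but images rejected on review; inactive = inhibition not above the cutoff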
# Insulin prom inh cell count – further read-out of Insulin prom inh, marked with its call; normalized cell count, %; measured here: cell count, toxicity; reference of the scale not given here;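 cells exposed to compound for 48 h; stained nuclei by imaging scaled within each plate; lower means fewer cells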
# HSV augment primary fold – further read-out of HSV augment, marked with its call; fold increase; compound at 10 µM; measured here: primary screen fold increase 10 uM; tested in PC3 cells;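 GFP signal in the first replicate; 1 = infected wells without compound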
# Starred values were filed as active, the others as inactive; i = inactive; ? = inconclusive; . = no result given. Not a hit list (roughly 1.3% active in at least one column).
SMILES,RGS16-Gao HTS,GALR2 ag,PKD1 kinase inh,HSV augment,HSV augment primary fold,Insulin prom inh,Insulin prom inh cell count
O=C(Nc1cccc(Cl)c1)c1cc([N+](=O)[O-])ccc1N1CCN(CCO)CC1,104,.,-4,i,0.94,.,.
CCOc1ccc(N2CC(O)Cn3c2nc2c3c(=O)n(CCCc3ccccc3)c(=O)n2C)cc1 (configuration not stated),87,-1.0,-6,i,1,59,93
Cc1nnc(NC(=O)CSc2nccn2-c2ccc(F)cc2)s1,100,.,-1,i,1.1,29,165
CCOC(=O)c1sc2cccc(Cl)c2c1N,74,0.5,-3,i,0.8,44,135
O=C(Cc1ccccc1)Nc1ccc(NC(=O)c2cccs2)c(Cl)c1,131,-1.2,3,.,.,42,120
Cn1c(/C(C#N)=C/C2CC=CCC2)nc2ccccc21 (configuration not stated),60,-1.2,2,i,0.79,.,.
Cn1cnnc1Sc1ccc(S(C)(=O)=O)cc1[N+](=O)[O-],105,.,1,i,0.95,.,.
COc1cc(C(=O)NNC(=O)NC2CCCCC2)cc(OC)c1OC,74,-1.1,3,i,0.9,17,106
Cc1sc2nc(CN3CCCCC3)nc(Cl)c2c1C,102,-0.9,-1,i,1.1,.,.
CC1CCc2c(sc(N)c2C(=O)OC(C)C)C1 (configuration not stated),125,-3.0,2,i,0.95,7,130
CCc1ccc(Nc2ncc3c(n2)CC(c2ccco2)CC3=O)cc1 (configuration not stated),99,-3.5,-10,i,1.1,.,.
O=[N+]([O-])c1ccc(C(O)C(CO)NC(=S)Nc2ccccc2)cc1 (configuration not stated),81,.,.,i,0.86,.,.
Cc1cc(C(=O)NC(=S)Nc2cccc(C(=O)O)c2C)ccc1[N+](=O)[O-],106,.,17,i,1.2,18,101
Cc1ccc(NC(=O)CN2C(=O)N/C(=C/c3ccco3)C2=O)cc1,96,0.3,-7,.,.,5,100
Cc1cc(C)c(NC(=O)CO/N=C2\CCCc3nonc32)c(C)c1,107,-1.0,-2,i,1,10,63
CCOC(=O)C(O)(CC(=O)c1ccc(Cl)cc1)C(=O)OCC,104,.,2,i,0.79,-33,144
CC1CCN(c2nc3c(c(=O)n(C)c(=O)n3C)n2CCSc2nc3ccccc3s2)CC1,92,-0.1,-13,i,0.91,-35,157
O=C(/C=C/c1ccc(Br)cc1)Nc1ccc(S(=O)(=O)Nc2ncccn2)cc1,100,.,1,i,0.98,.,.
COc1ccc(N2CCN(C(=O)c3sc4nc(-c5ccc(F)cc5)cn4c3C)CC2)cc1,.,-0.9,-12,i,0.88,.,.
C=C(C)c1cccc(C(C)(C)NC(=O)Nc2cc(C)ccn2)c1,92,-1.1,-11,i,0.95,.,.
O=C(CSC(=S)N1CCCCC1)Nc1nc(-c2ccccc2)c(-c2ccccc2)o1,104,-1.7,2,i,0.8,34,136
Cc1noc(/C=C/N(C)C)c1S(=O)(=O)N1CCCC(C(=O)NCc2ccccc2Cl)C1 (configuration not stated),100,-1.2,-11,.,.,.,.
O=C(O)CCCC(=O)N1CCc2cc(S(=O)(=O)N3CCc4ccccc43)ccc21,118,-0.7,1,i,1.1,.,.
Cc1cc(N2CCCc3ccccc32)n2ncnc2n1,107,-0.9,5,i,0.94,.,.
NC1=NC(=O)/C(=C/c2ccsc2)S1,48,.,-2,i,0.93,60,79
# Next section
SMILES,RGS16-Gao HTS,GALR2 ag,PKD1 kinase inh,HSV augment,HSV augment primary fold,Insulin prom inh,Insulin prom inh cell count
O=C(CC(=O)c1ccccc1O)c1cccc(F)c1,108,-1.9,-8,i,0.96,-35,22
CCCCC1=CC2=CC(=O)C(C)(OC(=O)c3cnc4ccccc4n3)C(=O)C2=CO1 (configuration not stated),96,.,.,i,1.1,.,.
COC(=O)c1ccc(C2C(C(=O)Nc3ccccc3C)=C(C)Nc3ncnn32)cc1 (configuration not stated),100,-0.8,-3,i,0.98,.,.
CCOC(=O)C(=O)Nc1nnc(Cc2ccc(OC)c(OC)c2)s1,104,-1.8,-3,i,1,53,75
Cc1c(NC(=O)COC(=O)c2ccc(S(=O)(=O)N3CCOCC3)cc2)c(=O)n(-c2ccccc2)n1C,103,.,-7,i,0.95,.,.
COc1ccc(NC(=O)CC(C)C)c(OC)c1,94,-2.5,-3,i,1,-8,98
COc1ccccc1NS(=O)(=O)c1ccc2oc(SC3CCOC3=O)nc2c1 (configuration not stated),116,-2.8,-2,i,1,36,125
COc1ccc(/C=C/CN2CCN(CCc3ccccc3)C(CCO)C2)cc1 (configuration not stated),98,.,-5,i,0.89,.,.
Cc1cc(/C(N)=N/OC(=O)c2ccc(Cl)cc2)no1,99,.,.,i,0.99,.,.
O=C(CSc1nnc(-c2cccnc2)n1C1CCCCC1)NC1CCCC1,116,-1.5,0,i,1.4,-8,103
COCCn1nnnc1C(c1cc2cc(C)ccc2[nH]c1=O)N1CCN(C2CCCCC2)CC1 (configuration not stated),102,-0.5,-5,i,1,.,.
NC(=O)[C@@H]1CCNc2c(I)cc([N+](=O)[O-])cc2C(=O)N[C@@H](CO)C(=O)N[C@@H](Cc2ccc(O)cc2)C(=O)N1,76,-2.2,-4,i,0.84,-20,115
N#Cc1cc(-c2ccccc2)nnc1Sc1ccc(F)cc1,89,-1.8,-1,i,1.2,17,114
Cc1cccc(CSc2nnc(Cn3c(=O)sc4ccccc43)n2C)c1,107,-1.6,6,i,1.1,.,.
CCOc1ccc2nc(NC(=O)CCC(=O)c3cccs3)sc2c1,96,-0.8,7,?,.,-7,131
Cc1cc(NC(=O)CSCCO)no1,98,-2.4,0,i,1,24,89
Cc1cccc(N2CCN(C(=O)COc3cccc4c3OC(C)(C)C4)CC2)c1C,99,-1.2,5,i,1,.,.
CCOC(=O)c1ccc(-c2ccc(CO)o2)cc1,101,-1.9,-1,i,1,.,.
CCn1cc(C(=O)N2CCc3ccccc32)c(=O)c2cc(S(=O)(=O)N3CCOCC3)ccc21,105,-3.5,4,.,.,.,.
O=C(Nc1nnc(SCc2ccc(F)cc2)s1)c1ccccn1,106,.,-5,i,0.98,-47,79
CCC(=O)N/C(N)=N/c1nc(C)c2cc(C)c(C)cc2n1,70,.,.,i,0.69,.,.
CC(=O)c1sc(NC(=O)c2c(F)cccc2F)nc1-c1ccccc1,81,.,-5,i,1.1,5,99
S=C(NCCN1CCOCC1)Nc1ccc(Br)cc1,105,-0.2,4,i,0.96,-12,80
Cc1ccc(S(=O)(=O)n2nc(-c3ccco3)nc2SCc2ccccc2)cc1,101,-0.9,-11,.,.,56,48
CC(=O)C1=C(c2ccc(Br)cc2)C(=O)c2ccccc2C1=O,100,-1.7,4,.,.,61,118
# Further structures
SMILES,RGS16-Gao HTS,GALR2 ag,PKD1 kinase inh,HSV augment,HSV augment primary fold,Insulin prom inh,Insulin prom inh cell count
O=C(c1ccccc1)n1nc(-c2ccccc2)nc1NCc1ccco1,99,-3.9,-4,.,.,.,.
O=C(CN1CCCCC1)Nc1ccc(S(=O)(=O)NC2CCCCC2)cc1,103,-4.0,-7,i,0.85,.,.
CNC(=O)COC(=O)c1cccnc1SC,89,-1.6,4,i,0.97,-30,59
CCn1c2ccc(CC(=O)O)cc2c2cc(CC(=O)O)ccc21,102,-2.2,3,i,0.9,19,107
CN(C)C(=O)c1ccc(NC(=O)COc2ccc([N+](=O)[O-])cc2)cc1,101,.,-1,i,0.96,.,.
CCCCNC(=O)c1sc2ncnc(N3CCc4ccccc4C3)c2c1C,102,-1.4,3,i,0.99,-6,124
COc1ccc(C2CC(c3cccs3)=Nc3ccccc3S2)cc1OC (configuration not stated),84,-2.5,-2,i,0.84,-108,82
CC(=O)Nc1ccc(S(=O)(=O)Nc2nccc(C3Cc4ccccc4C(=O)O3)n2)cc1 (configuration not stated),102,-1.4,-1,.,.,14,110
Cc1csc(C(C#N)C(=O)c2ccncc2)n1 (configuration not stated),54,-2.1,1,.,.,.,.
Cc1ccccc1-c1ccc(C=Nc2c(C)n(C)n(-c3ccccc3)c2=O)o1,74,-1.9,6,i,0.78,.,.
COC(=O)c1ccc(-n2ccnc2)cc1,99,.,-2,.,.,-8,133
O=C(OCc1cc2ccccc2[nH]c1=O)c1ccco1,195,-0.3,0,i,0.97,32,117
Cc1ccc2nc(-c3ccccn3)cc(C(=O)NC(C)C(C)(C)C)c2c1 (configuration not stated),101,.,-10,i,0.94,.,.
CSc1nc(N)nc(SC2C=CCCC2)c1C#N (configuration not stated),98,1.8,3,i,0.86,-311,57
O=[N+]([O-])c1cc(/C=N/N2CCN(Cc3ccccc3)CC2)ccc1Cl,95,.,-7,i,1.1,.,.
CC(=O)SCC(Cc1ccccc1)C(=O)NCC(=O)OCc1ccccc1 (configuration not stated),93,.,.,i,0.77,.,.
COc1ccc(Cc2n[nH]c(=S)n2NC(=O)Nc2ccc(C)cc2)cc1,102,.,-3,i,0.91,0,126
CC(C)[C@H](NC(=O)c1ccccc1)C(=O)OCC(=O)Nc1ccc(Cl)cc1C(F)(F)F,79,-0.5,-2,i,0.8,.,.
O=C(NCc1ccccc1)c1ccc2c(c1)C(=O)N(Cc1ccncc1)C2=O,98,-1.8,-11,i,0.92,-20,229
COc1cc(C(=O)NC2CCCC2)c(Br)c(OC)c1OC,96,.,-6,i,1.1,.,.
O/N=C1/CCCCC1c1ccccn1 (configuration not stated),105,-2.3,-3,i,0.85,36,80
Cc1cc(Cl)ccc1NC(=S)NCCN1CCOCC1,105,-0.3,-15,i,1,32,86
O=c1c2ccccc2ncn1-c1ccc2c(c1)OCCO2,86,-0.9,-38,i,0.98,47,93
O=C(c1ccc(Sc2ccc(F)cc2)c([N+](=O)[O-])c1)N1CCOCC1,104,.,3,i,0.87,-70,170
CN(C)/C=C/C(=O)c1cccc(C(F)(F)F)c1,103,.,-9,i,0.91,-156,105
# Further records follow:
SMILES,RGS16-Gao HTS,GALR2 ag,PKD1 kinase inh,HSV augment,HSV augment primary fold,Insulin prom inh,Insulin prom inh cell count
Cc1c(C(=O)NC(C(C)C)C(C)C)cccc1[N+](=O)[O-],105,0.4,-2,i,1,-66,155
Cc1ccc(C(=O)/C=C/c2cn(CC(O)CN3CCOCC3)c3ccccc23)cc1 (configuration not stated),102,-0.3,-1,i,0.88,.,.
COCCNC(=O)CN(C)S(=O)(=O)c1ccc2c(c1)OCCO2,100,-1.9,-5,i,0.87,-43,101
CC(C)Cc1cc(C(=O)NCc2ccco2)no1,98,.,1,i,1,.,.
COC(=O)c1cc(NC(=O)Cc2ccccc2[N+](=O)[O-])ccc1Cl,98,-1.3,5,i,0.98,-81,88
O=C(CSc1ncn[nH]1)N1CCN(S(=O)(=O)c2ccccc2)CC1,103,-2.0,-2,i,1,-6,63
CCOC(=O)C1CCN(C(=O)c2ccc(CNS(=O)(=O)c3ccc(OC)cc3)cc2)CC1,96,.,-9,i,0.96,.,.
COc1ccccc1N1CCN(Cc2cc(=O)n3ccsc3n2)CC1,113,-3.8,-2,i,0.93,11,106
N#C/C(=C/c1ccc(N2CCOCC2)o1)C(=O)Nc1ccccc1,249,.,-9,?,.,.,.
CCn1cc(C(=O)N2CCOCC2)c(=O)c2cc(S(=O)(=O)N(C)C3CCCCC3)ccc21,114,-0.4,-12,i,0.87,-29,72
Cc1cc(Cl)ccc1Oc1ncnc2oc(-c3ccccc3)cc12,79,-0.3,-6,.,.,16,59
COc1ccc(CN=C2NC(=O)CC(C(=O)Nc3cc(C)cc(C)c3)S2)cc1 (configuration not stated),105,-1.6,-4,i,0.94,3,89
CC(C)c1nc(SCC(=O)NCc2ccccc2)n[nH]1,105,-0.2,-14,i,0.77,43,127
CCOC(=O)N1CCC(n2c(SCC(=O)N3CCCC3)nc3ccccc3c2=O)CC1,100,-1.2,9,i,0.92,40,132
Cc1cc(OCCN2CCCCC2)nc2ccccc12,94,-1.0,4,i,0.98,-30,87
c1csc(-c2noc(CN3CCc4sccc4C3)n2)c1,101,.,-3,i,0.99,.,.

# Profiles, looked up by structure. Values in the order: RGS16-Gao HTS	GALR2 ag	PKD1 kinase inh	HSV augment	HSV augment primary fold	Insulin prom inh	Insulin prom inh cell count
# Entry for COC(=O)c1cc(NC(=O)Cc2ccccc2[N+](=O)[O-])ccc1Cl = 98	-1.3	5	i	0.98	-81	88
# Entry for CCOC(=O)C1CCN(C(=O)c2ccc(CNS(=O)(=O)c3ccc(OC)cc3)cc2)CC1 = 96	.	-9	i	0.96	.	.

# Results in PKD1 kinase inh (five entries from above):
SMILES | PKD1 kinase inh
COCCNC(=O)CN(C)S(=O)(=O)c1ccc2c(c1)OCCO2 | -5
CC(C)Cc1cc(C(=O)NCc2ccco2)no1 | 1
COC(=O)c1cc(NC(=O)Cc2ccccc2[N+](=O)[O-])ccc1Cl | 5
O=C(CSc1ncn[nH]1)N1CCN(S(=O)(=O)c2ccccc2)CC1 | -2
CCOC(=O)C1CCN(C(=O)c2ccc(CNS(=O)(=O)c3ccc(OC)cc3)cc2)CC1 | -9
